# Source: PubChem BioAssay (National Center for Advancing Translational Sciences (NCATS))
# D2 PAM: positive allosteric modulators of human D2 dopamine receptor; hit rate 0.23% among 360,000; potentiation, % (no concentration beside the values); AID 624464; DiscoveRx D2 beta-arrestin cells, luminescence, 90 min; 100% = 57 uM dopamine signal; active = potentiation of 50% or more; inconclusive = 30% to 50%; inactive = 30% or less;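 further: compound concentration not given in the record; tested on top of an EC20 dose of dopamine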
# Target sequence (P14416 whole entry, looked up): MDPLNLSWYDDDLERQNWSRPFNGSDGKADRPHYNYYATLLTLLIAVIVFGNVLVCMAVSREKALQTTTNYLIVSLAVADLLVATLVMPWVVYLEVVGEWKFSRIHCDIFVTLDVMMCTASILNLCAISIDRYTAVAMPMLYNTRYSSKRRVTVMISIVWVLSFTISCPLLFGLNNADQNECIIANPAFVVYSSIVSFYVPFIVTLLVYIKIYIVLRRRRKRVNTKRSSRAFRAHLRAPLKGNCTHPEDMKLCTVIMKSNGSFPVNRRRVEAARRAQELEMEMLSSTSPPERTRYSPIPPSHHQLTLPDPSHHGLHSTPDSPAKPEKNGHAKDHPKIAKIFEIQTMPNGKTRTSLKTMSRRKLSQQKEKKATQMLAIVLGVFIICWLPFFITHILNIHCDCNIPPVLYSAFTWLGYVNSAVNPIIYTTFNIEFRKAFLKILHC
#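 PathHunter beta-arrestin assay in DiscoveRx D2 cells. Compounds were added with an EC20 of dopamine (50 nM final) for 90 min at 37 deg C. Luminescence was read 1 h after detection reagent, with 57 uM dopamine as the EC100 control.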
# Sfp PPTase inh: inhibitors of Bacillus subtilis Sfp phosphopantetheinyl transferase. Q9F4F7. Biochemical Sfp PPTase activity, qHTS. hit rate 3.5% among 310,000. AID 1490. Potency, µM, for inactives: max response, negative = inhibition, actives largely listed as inhibitors; active means well fitted inhibition curve with a large enough effect; inconclusive means small, poorly fitted or top-dose-only effect, or another doubt; inactive means no such curve, though single readings can be large or run the other way;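 further: the enzyme is Sfp with the accession as filed and its product quenches rhodamine fluorescence; potency means the concentration at half of the fitted maximal effect; 0% = enzyme reaction without inhibitor and -100% = no enzyme wells; top concentration of the series not given in the record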
#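 With Hepes-Na pH 7.6 buffer containing 10 mM MgCl2, Sfp (15 nM) modified BHQ-2-YbbR (12.5 uM) using rhodamine-CoA (5 uM). Two reads 30 minutes apart at 525/598 nm yielded each well's rate.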
# Menin-MLL FL inh: displaces fluorescein MLL peptide from human menin. 290,000 tested, under 10 active. AID 1766. FP activity change, % at 61.4 µM. Fluorescence polarization, fluorescein-MLL peptide displacement from menin; inconclusive = falling polarisation curve, or a change in total fluorescence; inactive = total fluorescence flat and polarisation flat or rising; no compound was filed as active; the % refers to the polarisation; negative = inhibition;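 further: % of control where 0% means no effect; inhibitors lower the polarisation; unlabelled MLL peptide was the positive control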
# gsp agonist: agonists of gsp mutant (McCune-Albright syndrome) | AID 624287 | Potency, µM (highest dose often 76.9 µM), for the others: at the highest dose activation (cAMP increase), hits mostly activators | gsp mutant cells, cAMP HTRF, 30 min; control for the full effect not named in the record | hit rate 0.13% among 340,000; active = well fitted activation curve with a large enough effect; inconclusive = small, poorly fitted or top-dose-only effect, or another doubt; inactive = no such curve, though single readings can be large or run the other way; cell line not stated here;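 further: phosphodiesterase inhibitor Ro 20-1724 added with compounds to block cAMP breakdown; potency means the concentration at half of the fitted maximal effect; nearly all actives have a fitted effect of over 60% in size; about a fifth of the inactives were tested at one dose only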
#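 Cells stably selected in G418 were plated at 2000/well, grown 16-24 hr, then given compounds in DMSO with the PDE inhibitor […] (300 uM solution added) for 30 min at 37C; cAMP was read by HTRF.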
# TRPV1 PAM: human TRPV1 potentiation. potentiation, % at 8.33 µM. TRPV1-expressing cells, Fluo-8 calcium influx, capsaicin EC20 potentiation; host cell line not named in the record; control for the full effect not named in the record. hit rate 0.02% among 320,000. AID 540277. Q8NER1; active means potentiation above 80%; inconclusive means 30% to 80%; inactive means below 30%; further: 0% is about no effect
#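 TRPV1-expressing cells were cultured overnight at 35.5C and loaded with Fluo-8 calcium dye for 40 to 90 min at room temperature. After a 10 s baseline, compound was added and calcium influx was read kinetically for 3 min (ex 480/em 520 nm).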
# ClpP mod: qHTS Assay for Activators of ClpP | Potency, µM (doses to about 57.5 µM), without a hit: at the top dose activity change, negative = active | hit rate 1.9% among 340,000 | ATP-dependent Clp protease proteolytic subunit (Bacillus subtilis (strain 168)), P80244 | purified B. subtilis ClpP, FRET peptide cleavage, 20 min; active = well fitted falling curve with a large enough effect; inconclusive = small, poorly fitted or top-dose-only effect; inactive = no such curve, though single readings can be large or run the other way; further: potency means the concentration at half of the fitted maximal effect; the source files actives as falling curves though it sought activators and does not explain the sign; nearly all actives have a fitted effect of over 65% in size; many hits overshoot -100%
# Target sequence (P80244 whole entry, looked up): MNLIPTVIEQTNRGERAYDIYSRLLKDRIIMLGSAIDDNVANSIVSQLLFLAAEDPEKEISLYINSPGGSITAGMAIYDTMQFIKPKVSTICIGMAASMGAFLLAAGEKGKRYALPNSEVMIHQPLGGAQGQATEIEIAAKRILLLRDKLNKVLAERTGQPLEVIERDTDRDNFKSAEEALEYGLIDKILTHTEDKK
#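 ClpP 10 microg/mL final, pH 8 Tris/KCl buffer with BSA, glycerol, Tween-20; compound pinned in; FRET-FV substrate; RT 20 min; Ex320/Em430; ΔFRET vs ADEP 5.8 microM, DMSO, no enzyme.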
# gsp antag: antagonizes gsp, the McCune-Albright syndrome mutation; gsp-mutant cells, cAMP HTRF, 30 min; control for the full effect not named in the record; Potency, µM (series often up to 76.9 µM), inactives show top-dose activity change, negative = inhibition, most hits filed as inhibitors; hit rate 0.4% among 340,000; AID 624288; active = falling curve of any shape with a large fitted effect; inconclusive = falling curve, mostly with a smaller effect; inactive = flat or rising curve; cell line not stated here;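 further: intracellular cAMP measured with PDE inhibitor Ro 20-1724 present during compound exposure; potency means the concentration at half of the fitted maximal effect; on the % scale 0 is the no-effect control and ±100 the full control effect; nearly all actives have a fitted effect of over 65% in size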
#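 Cells, 2000/well, grown 16–24 h in DMEM 10% FBS with 0.5 mg/ml G418, then compounds plus […] (300 uM addition stock), 30 min at 37C. cAMP read by HTRF (cAMP-d2 and anti-cAMP antibody-K in lysis buffer) after 30 min RT.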
# Starred values were filed as active, the others as inactive; ? = inconclusive; . = no result given; ! = not active in a repeat; [ ] = another dose, or the depositor's remark.
SMILES,D2 PAM,Sfp PPTase inh,Menin-MLL FL inh,gsp agonist,TRPV1 PAM,ClpP mod,gsp antag
COc1ccc(C(=O)Nc2ccnn2C2CCN(CCC(C)c3ccc(C)o3)CC2)cc1 (stereo not given),-36,?,.,5%,-3,-1.5%,10%
CN(C(=O)COC(=O)C1(C)CC1(Cl)Cl)c1c(N)n(Cc2ccccc2)c(=O)[nH]c1=O (stereo not given),-2,.,.,-63%[inhibitor],6,0.7%,16%
O=C(Nc1ccc(S(=O)(=O)N2CCOCC2)cc1)c1ccccc1F,-12,6%,-2.6,22%,-4,0.0%,13%
CN(C)c1ccc(-c2nc3cnccn3c2Nc2ccc3c(c2)OCCO3)cc1,-6,-16%,8.3,15%,-4,-2.8%,-16%
O=C(Cn1ccnc1)c1ccc(Cl)cc1,-10,13%,-3.3,18%,-2,-2.2%,8%
COc1ccccc1-c1c(C)oc2c(CN3CCCC(C)C3)c(O)ccc2c1=O (stereo not given),-7,8%,0.8,-5%,12,.,2%
COC(=O)c1c(NC(=S)NNC(=O)c2ccc(Cl)s2)sc(C(=O)N(C)C)c1C,-23,4%,.,?,6,-17%,-16%
O=C1CC(N2CCN(c3ccccc3F)CC2)C(=O)N1c1ccc(F)cc1 (stereo not given),-11,.,.,-64%[inhibitor],.,-2.8%,5%
COc1ccc(OCC(O)CN2C(=O)c3ccccc3S2(=O)=O)cc1 (stereo not given),-6,-11%,-1.6,10%,-14,-0.1%,-11%
COc1ccc([C@@H]2[C@@H]3C(=O)N(C(C)(C)C)C(=O)[C@@H]3[C@]3(Cc4ccc(Cl)cc4)C(=O)N(c4ccc(OC)cc4)C(=O)N23)cc1,-9,.,.,7%,19,-1.2%,-2%
CC(=O)NC(CC(=O)NC(C)c1ccc(Cl)cc1Cl)c1ccccc1 (stereo not given),-16,8%,-0.7,-9%[15.4 µM],16,.,-9%
Cc1cccc(NS(=O)(=O)c2cc(Cl)ccc2Cl)n1,-3,3%,2.2,-62%[inhibitor],-3,.,1%
CCc1ccc(N(CC(=O)N2CCCC2)S(C)(=O)=O)cc1,-27,.,.,-97%[inhibitor],.,-4.7%,.
COc1ccccc1C(O)c1nccn1C (stereo not given),-6,12%,0.7,2%[15.4 µM],-4,0.1%,2%
O=C(NCc1ccc2c(c1)OCO2)c1c(-c2ccccc2)sc2ccccc12,-8,.,.,0%,.,-26%,-7%
CSc1ccc(CN2CCN(C(C)C)C(CCO)C2)cc1 (stereo not given),-13,3%,1.3,5%[15.4 µM],25,.,4%
COc1ccc(C(=O)NCC(=O)N2CCC(C)CC2)cc1OC,-6,17%,0.0,-22%,13,0.3%,14%
COc1ccc2nc(NC(=O)CSc3nc(SC)ns3)sc2c1,-4,-27%,-1.0,-3%,27,9.0%,-20%
CCCC(=O)Nc1cc(OC)c(NC(=O)NC2CCCCC2)cc1OC,-5,-16%,-0.3,-10%,-33,0.2%,-4%
CN(C(=O)CSc1nncn1-c1ccccc1)c1ccccc1,-2,11%,5.0,0%[15.4 µM],5,.,4%
Cc1ccc2nc(-c3cccnc3)oc2c1,-2,10%,-6.7,-2%,21,1.4µM*!,-1%
Cc1ccc(C(=O)O)cc1N1C(=O)c2cccc3cc(Br)cc(c23)C1=O,0,12%,-2.5,?,-14,-0.7%,3%
CC(=O)N1c2ccccc2NC(=O)C1(C)C,-3,-4%,5.0,-4%,-5,-1.1%,7%
O=C(COC(=O)/C=C/c1ccc([N+](=O)[O-])cc1)NNC(=O)c1ccccc1,-2,.,.,15%[15.4 µM],.,0.1%,-14%
Cc1csc(-c2coc3cc(O)cc(C)c3c2=O)n1,-8,-8%,-0.3,7%,-12,-2.8%,-10%
CCOC(=O)C1=C(C)N(C[C@@H]2CC[C@@H](Cc3ccc(-c4ccccc4)cc3)O2)C(=O)NC1c1ccc(Cl)cc1 (stereo not given in full),-3,.,.,.,.,-2.7%,3%
COc1ccc(CCNc2cc(-c3ccccc3)nc3ncnn23)cc1,-8,11%,1.9,0%,-9,-9.3%,-16%
NC(=NC(=O)c1ccc(OCC(F)(F)F)nc1)c1ccccc1,-20,26%,3.5,0%,.,-18%,-9%
O=C(CCc1nc(-c2ccccc2F)no1)Nc1cccnc1,-18,0%,.,3%,15,-0.5%,-8%
CCCS(=O)(=O)c1c(S(=O)(=O)CCC)c2ccc(C(C)=O)cn2c1C(=O)OC,0,4%,-1.8,-4%[15.4 µM],3,.,-10%
O=C(NCCCN1CCCC1=O)C1CCN(S(=O)(=O)c2ccccc2)CC1,7,.,.,6%,3,1.7%,3%
Cc1ccc(NC(=O)N(CCCN2CCOCC2)Cc2cccnc2)cc1C,-3,2%,-0.7,2%,0,1.1%,1%
Cc1c(Cc2ccccc2)c(=O)oc2c(C)c(OC(C)C(=O)NCC3CCC(C(=O)O)CC3)ccc12 (stereo not given),-25,4%,-1.6,.,-15,5.0%,?
CCCCN(C(=O)Cn1nnc2ccccc21)C(C(=O)NCc1ccco1)c1ccncc1 (stereo not given),-9,50µM*,-0.2,9%,1,1.4%,-9%
COC(C(=O)Nc1ccc(S(=O)(=O)Nc2c(C)cccc2C)cc1)c1ccccc1 (stereo not given),-6,10%,5.0,17%[15.4 µM],14,-0.2%,1%
Cc1ccc(NC(=O)CC(C)CC2=NS(=O)(=O)c3ccccc3N2)cc1 (stereo not given),4,10%,0.1,-44%[inhibitor],?,-2.5%,3%
CC1CCC2(CC1)NC(=O)N(CC(=O)NC(=O)NC1CCCC1)C2=O (stereo not given),2,13%,2.7,2%,2,0.1%,-1%
COc1ccc(Cl)cc1S(=O)(=O)Nc1ccncc1,-5,27%,-1.1,2%[15.4 µM],-7,.,3%
CC1CCC(NC(=O)c2cc(S(=O)(=O)N3CCCCC3)c[nH]2)CC1 (stereo not given),-4,6%,6.4,-21%,26,-2.0%,9%
COCCN(C(=S)Nc1c(C)cccc1C)C(C)c1cccs1 (stereo not given),-6,3%,-0.4,-3%,?,1.3%,-9%
Cc1cc(C(=O)Nc2ccccc2N2CCOCC2)c2ccccc2n1,9,?,5.8,-4%,-5,-0.5%,?
CC1(C)CC(=O)C=C(Nc2ccc(Cl)cc2)C1,-2,6%,-5.7,-2%,-11,.,-1%
COc1ccccc1C(C(=O)NC1CCCC1)N(C(=O)c1csnn1)C1CC1 (stereo not given),-10,7%,1.2,1%[15.4 µM],29,.,.
CCCOc1ccccc1/C=N/NC(=O)C1CC1,-11,-7%,.,-4%,5,-0.1%,6%
Cc1cc(C)n2nc(C)c(-c3ccc(Cl)cc3)c2n1,-2,10%,0.1,-7%,-4,-5.6%,-25%
COc1cc(C(=O)N/N=C(\Cc2ncc[nH]2)c2ccccc2)cc(OC)c1OC,-6,14%,1.1,15%[15.4 µM],1,.,-3%
COc1ccc2c(C)cc(N3CCN(Cc4ccccc4)CC3)nc2c1,-14,-4%,-1.2,24%,22,?,4%
CCOC(=O)N1CCN(C(=O)CSc2ccc(C(F)(F)F)cc2[N+](=O)[O-])CC1,-5,8%,3.7,-4%[15.4 µM],10,.,9%
O=C1C(Cc2ccccc2)Nc2ncnc(N3CCCCC3)c2N1Cc1ccccc1 (stereo not given),-60,.,.,.,.,-5.6%,-6%
CCOC(=O)N1CCN(S(=O)(=O)c2ccc3[nH]cc(C(=O)O)c(=O)c3c2)CC1,-6,19%,5.1,2%,-1,?,-11%
CN(c1cccc(NC(=O)c2ccc(N(C)S(=O)(=O)c3ccccc3)cc2)c1)S(C)(=O)=O,6,17%,0.4,-28%,1,0.1%,25µM*
c1coc(-c2nc3ccccc3nc2-c2ccco2)c1,18,14µM*,2.5,2%,13,-18%,1%
O=C(Cn1cnc2c(nnn2Cc2ccccc2)c1=O)NCC1CCCO1 (stereo not given),-5,20%,7.1,?,-1,-0.4%,20%
N/C(=N\OC(=O)COc1ccc(Br)cc1Cl)c1ccccn1,20,-12%,2.7,23%,-4,-2.0%,-7%
Cc1ccc2c(C(=O)CCl)c(C)[nH]c2c1,-4,17%,1.6,?,0,-0.7%,-12%
Cc1ccccc1OCCC(=O)OCC(=O)N1CCN(S(=O)(=O)c2ccc(Cl)cc2)CC1,-2,.,.,3%[15.4 µM],4,1.0%,-4%
CCN1C(=O)NC2=C(C(=O)c3ccccc32)C1c1ccccc1F (stereo not given),-15,-10%,-1.6,-28%,-1,1.6%,-11%
Cc1ccc(NS(=O)(=O)Cc2ccccc2)nc1,-7,-24%,-0.9,11%[15.4 µM],0,.,-3%
CCOc1ccc(CC2CC(=O)NC2=O)cc1 (stereo not given),-3,8%,6.9,5%,24,-0.6%,2%
O=C(NC1CCCCCCC1)c1ccccc1O,11,14%,3.6,-13%,-14,28µM*,4%

# Some of these compounds in order of their number in D2 PAM, low to high.
structure | D2 PAM | Sfp PPTase inh | Menin-MLL FL inh | gsp agonist | gsp antag
O=C1C(Cc2ccccc2)Nc2ncnc(N3CCCCC3)c2N1Cc1ccccc1 (stereo not given) | -60 | . | . | . | -6%
CCOC(=O)N1CCN(C(=O)CSc2ccc(C(F)(F)F)cc2[N+](=O)[O-])CC1 | -5 | 8% | 3.7 | -4%[15.4 µM] | 9%
CCOc1ccc(CC2CC(=O)NC2=O)cc1 (stereo not given) | -3 | 8% | 6.9 | 5% | 2%

# Next structures follow.
SMILES,D2 PAM,Sfp PPTase inh,Menin-MLL FL inh,gsp agonist,TRPV1 PAM,ClpP mod,gsp antag
CC(C)(C)NC(=O)CN(C(=O)CNS(=O)(=O)c1ccc(Cl)cc1)c1ccc2c(c1)OCCO2,-6,13%,3.8,-2%[15.4 µM],-1,-1.5%,-6%
O=C(COC(=O)CC1CCCCC1)Nc1c(Cl)cccc1Cl,1,.,.,18%,-28,1.8%,15%
Cc1ccc(S(=O)(=O)CS(=O)(=O)c2ccc(C)cc2)cc1,-11,.,.,-25%,.,0.8%,1%
COc1ccc(C(=O)NCC(=O)OC2CCCCC2=O)cc1 (stereo not given),28,6%,2.2,?,-7,-1.4%,-7%
Clc1ccc(OCc2nn3c(-c4ccccc4)nnc3s2)c(Cl)c1,-9,10%,1.0,24%,-6,-0.5%,3%
O=C(CNC(=O)c1ccc(Br)o1)NCC1CCCO1 (stereo not given),-9,18%,.,23%,?,-0.4%,8%
